KCNQ2 pot: potentiators of rat KCNQ2 potassium channel | Potassium voltage-gated channel subfamily KQT member 2 (Rattus norvegicus), O88943 | CHO-K1 KCNQ2, FluxOR thallium flux fluorescence; stronger effect = higher value | B-score at 10 µM | 310,000 compounds, 0.54% hits;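 active = fluorescence ratio B-score at least 3 SD of library B-scores, with initial fluorescence B-score within 3 SD, cut at about 5.3 in these data; same plate scores as AID 2156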;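 note: B-score of peak minus minimum over baseline fluorescence ratio after K+ and Tl+ stimulus; positive B-score means potentiation of KCNQ2 with more thallium influx and brighter signal; only the inactives scoring about 0 or higher are listed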
Target sequence (O88943 whole entry, looked up): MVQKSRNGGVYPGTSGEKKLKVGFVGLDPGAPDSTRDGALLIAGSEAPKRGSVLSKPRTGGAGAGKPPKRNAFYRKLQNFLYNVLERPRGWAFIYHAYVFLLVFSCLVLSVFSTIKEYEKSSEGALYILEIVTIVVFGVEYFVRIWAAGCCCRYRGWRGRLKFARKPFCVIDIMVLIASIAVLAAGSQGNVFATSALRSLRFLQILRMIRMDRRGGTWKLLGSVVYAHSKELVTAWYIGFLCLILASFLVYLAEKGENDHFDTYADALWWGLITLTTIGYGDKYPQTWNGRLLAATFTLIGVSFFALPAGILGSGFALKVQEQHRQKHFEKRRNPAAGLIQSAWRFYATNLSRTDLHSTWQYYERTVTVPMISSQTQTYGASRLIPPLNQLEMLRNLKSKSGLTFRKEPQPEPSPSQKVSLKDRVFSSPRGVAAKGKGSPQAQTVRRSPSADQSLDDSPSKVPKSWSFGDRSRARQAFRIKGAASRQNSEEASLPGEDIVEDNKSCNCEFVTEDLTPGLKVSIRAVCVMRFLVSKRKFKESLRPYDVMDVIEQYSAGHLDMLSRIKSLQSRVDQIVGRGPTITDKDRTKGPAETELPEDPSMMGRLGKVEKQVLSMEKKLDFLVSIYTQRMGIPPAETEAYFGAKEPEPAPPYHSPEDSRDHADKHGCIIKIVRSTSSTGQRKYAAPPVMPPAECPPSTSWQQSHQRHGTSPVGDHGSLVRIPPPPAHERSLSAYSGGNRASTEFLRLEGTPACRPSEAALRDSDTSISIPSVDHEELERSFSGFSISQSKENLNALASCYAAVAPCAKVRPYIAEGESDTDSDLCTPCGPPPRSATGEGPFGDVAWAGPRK
KCNQ2 pot baseline: second read-out of KCNQ2 pot, no call of its own (marks repeat the call); B-score; compound at 10 µM; measured here: initial fluorescence intensity artifact check;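 brightness before thallium and not channel activity; 0 = typical well and far values either way flag optical interference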
Numbers without * were called inactive. An excerpt, so the mix of outcomes need not match the whole.

Start of the listing, in advance (3 entries):
1. Cc1cccc(CCNC(=O)C2CCCN(S(=O)(=O)c3cccc4nsnc34)C2)c1 (centres undefined)
2. Nc1n[nH]c(C2CCCCC2)n1
3. COc1ccc(/C=C2/CCCC(C(=O)C(F)(F)F)=C2O)cc1OC
assay / entry,1,2,3
KCNQ2 pot baseline,0.34,0.54,1.7
KCNQ2 pot,1,0.34,1.4

Results, repeating the preview:
1. Cc1cccc(CCNC(=O)C2CCCN(S(=O)(=O)c3cccc4nsnc34)C2)c1 (centres undefined)
2. Nc1n[nH]c(C2CCCCC2)n1
3. COc1ccc(/C=C2/CCCC(C(=O)C(F)(F)F)=C2O)cc1OC
4. COc1ccc(C(=O)Nc2ccc(NC(=O)c3cccs3)c(OC)c2)cc1Cl
5. NC(=O)c1cnn(C2CCS(=O)(=O)C2)c1 (centres undefined)
6. O=C1C2C3C=CC(C3)C2C(=O)N1c1cccc(-c2nc3ccccc3o2)c1 (centres undefined)
7. O=C(NCCc1ccccc1)C1CCN(C(=O)c2ccc(F)cc2)CC1
8. O=C(COC(=O)c1ccc(Cl)cc1O)NC(=O)C1CCCCC1
assay / entry,1,2,3,4,5,6,7,8
KCNQ2 pot baseline,0.34,0.54,1.7,-0.92,-0.48,-0.82,-0.48,0.03
KCNQ2 pot,1,0.34,1.4,0.72,1.5,1.1,0.61,0.02

9. O=C(CCNS(=O)(=O)c1ccc(OC(F)(F)F)cc1)N1CCN(S(=O)(=O)c2cccc(F)c2)CC1
10. CCOc1ccc(-c2nc(C#N)c(NCc3ccco3)o2)cc1
11. Cc1ccc(-c2nc(CNC(=O)c3ccco3)cs2)cc1
12. CCOc1ccc(N=Nc2c(=O)[nH]n3c(=O)c4c([nH]c23)CCCC4)cc1
13. Cc1ccc(-n2c(C)nnc2SCC(=O)N2CCc3ccccc3C2)cc1
14. CCN(CC)C1CCN(C(=O)c2cc(COc3ccc(F)cc3Cl)on2)C1 (centres undefined)
15. CCOC(=O)c1nn(-c2ccccc2Cl)c(=O)cc1OCC(=O)Nc1cccc(OC)c1
16. CCOc1ccc(NC(=O)CSc2nc3ccccc3c(=O)n2CCCC(=O)NCC2CCCO2)cc1 (centres undefined)
assay / entry,9,10,11,12,13,14,15,16
KCNQ2 pot baseline,2.1,1.7,-0.64,-0.78,1.4,0.39,0.08,-0.18
KCNQ2 pot,0.93,1.1,2.3,0.64,0.47,1.6,0.25,0.65

17. Cc1cccc(NC(=O)c2ccccc2NC(=O)c2ccco2)c1
18. COCCN1C(=O)C(=O)/C(=C(/O)c2ccc(S(=O)(=O)N3CCOCC3)cc2)C1c1ccc(OC)c(OC)c1 (centres undefined)
19. Cc1ccccc1CNc1nc(N)n(-c2ccccc2)n1
20. O=C(O)/C(=C/c1ccco1)NC(=O)c1ccc(Br)o1
21. CCOc1cc(/C=N\NC(=O)c2ccc(NC(=O)C(C)(C)C)cc2)ccc1OC(=O)c1ccc(C)cc1
22. CCOC(=O)N1CCN(C(=O)c2cc3cc(Br)ccc3oc2=O)CC1
23. C/C(=N\N=C1/NC(=O)C(C)S1)c1ccc([N+](=O)[O-])cc1 (centres undefined)
24. CCNNC(=O)C(O)(c1cccc(C)c1)c1cccc(C)c1
assay / entry,17,18,19,20,21,22,23,24
KCNQ2 pot baseline,1.2,-0.57,0.69,-0.3,-0.75,0.53,-0.4,0.83
KCNQ2 pot,0.03,0.92,0.69,0.42,1.8,0.74,0.73,0.01

5 compounds drawn at random from the list so far:
11. Cc1ccc(-c2nc(CNC(=O)c3ccco3)cs2)cc1
23. C/C(=N\N=C1/NC(=O)C(C)S1)c1ccc([N+](=O)[O-])cc1 (centres undefined)
3. COc1ccc(/C=C2/CCCC(C(=O)C(F)(F)F)=C2O)cc1OC
19. Cc1ccccc1CNc1nc(N)n(-c2ccccc2)n1
18. COCCN1C(=O)C(=O)/C(=C(/O)c2ccc(S(=O)(=O)N3CCOCC3)cc2)C1c1ccc(OC)c(OC)c1 (centres undefined)
assay / entry,11,23,3,19,18
KCNQ2 pot baseline,-0.64,-0.4,1.7,0.69,-0.57
KCNQ2 pot,2.3,0.73,1.4,0.69,0.92

(next part)
25. CC(C)CC(=O)NC(=S)Nc1nc(-c2ccccc2)cs1
26. CCOC(=O)C(C)(C)n1nnc(-c2ccc([N+](=O)[O-])cc2)n1
27. CCC(=O)NC(=S)Nc1ccc(NC(=O)c2ccco2)c(Cl)c1
28. O=C(c1cccs1)N1CCC(c2nc3c(nnn3Cc3ccccc3Cl)c(=O)[nH]2)CC1
29. N/C(Cc1ccc(Cl)cc1Cl)=N\OC(=O)c1ccc(Br)o1
30. CN(C)C(=O)CCC(=O)N1CCCC(C(=O)c2ccc3c4c(cccc24)CC3)C1 (centres undefined)
31. COc1ccccc1-c1nnc(SCC(=O)NC2CCCCC2)o1
32. O=C(CCN1C(=O)[C@@H]2Cc3ccccc3CN2C1=O)N[C@@H](C(=O)O)c1ccccc1
assay / entry,25,26,27,28,29,30,31,32
KCNQ2 pot baseline,2.1,-0.05,1.6,1.8,0.73,0.21,0.98,0
KCNQ2 pot,0.78,0.1,0.14,0.13,0.2,0.09,0.73,0.34

33. C/C(=N\OCC(=O)Nn1c(C)nc2ccccc2c1=O)c1cccs1
34. CCOC(=O)CSc1nc(N)c(C#N)cc1C#N
35. O=C(COC(=O)CCc1ccccc1)Nc1ccccc1OC(F)F
36. CC(C)CN1C(=O)c2ccc(C(=O)Nc3ccc(OCC(=O)O)cc3)cc2C1=O
37. Cc1cccc(OCCC(=O)OCC(=O)Nc2c(C)nn(-c3ccccc3)c2C)c1
38. CC1(C)CC(=O)C(N=Nc2c(F)cccc2F)=C(O)C1
39. CCc1ccccc1NC(=O)COC(=O)C1C2CC3OC(=O)C1C3C2 (centres undefined)
40. Cc1ccc(/C=C2/C(=N)N3N=C(CC(=O)N4CCCC4)SC3=NC2=O)cc1
assay / entry,33,34,35,36,37,38,39,40
KCNQ2 pot baseline,-0.06,0.12,-0.27,-0.52,-0.7,-0.07,-0.58,0.03
KCNQ2 pot,1.5,1.7,1.6,0.16,0.64,0.03,0.49,1.3

In another format: results already given
cpd	KCNQ2 pot baseline	KCNQ2 pot	SMILES
33	-0.06	1.5	C/C(=N\OCC(=O)Nn1c(C)nc2ccccc2c1=O)c1cccs1
34	0.12	1.7	CCOC(=O)CSc1nc(N)c(C#N)cc1C#N

Going on with the list:
41. CCc1nn(CC(=O)N2CCN(CC)CC2)c(=O)c2cc3sccc3n12
42. Cc1nc2cc(NC(=O)NCc3ccco3)ccc2n1C
43. COCc1cc(C)n(CC(=O)N2CCCC2)c(=O)c1C#N
44. COc1ccc(Cl)cc1N(CC(=O)Nc1cccc(SC)c1)S(C)(=O)=O
45. O=C(CSc1nc(O)cc(=O)[nH]1)N1CCCc2ccccc21
46. Cc1ccc(S(=O)(=O)CCC(O)c2ccc(Cl)cc2)cc1 (centres undefined)
47. O=C(NCc1ccc(Cl)cc1)C1CCN(S(=O)(=O)c2ccccc2)CC1
48. O=C(c1ccccc1)c1c[nH]c(C(=O)NNc2cccc(Cl)n2)c1
assay / entry,41,42,43,44,45,46,47,48
KCNQ2 pot baseline,0.02,-0.37,-0.09,-0.51,-1.5,-0.39,-1.8,0.92
KCNQ2 pot,0.05,0.55,0.9,0.06,0.47,0.25,2,0.01

49. CC(C)[C@@H](C(=O)O)N(Cc1cccc(CN([C@H](C(=O)O)C(C)C)S(C)(=O)=O)c1)S(C)(=O)=O
50. Nc1ncc(Br)cc1S(=O)(=O)Nc1cc(C(F)(F)F)cc(C(F)(F)F)c1
51. COc1ccc(C(=O)n2nc(C#N)c(C#N)c2N)cc1
52. CCC(=O)Nc1ccc(NC(=O)CSc2nnnn2C(C)C)cc1
53. CCCn1nnc(NC(=O)c2ccccc2Cl)n1
54. COc1ccc(Nc2n[nH]c(N)c2C(N)=O)cc1
55. CCNC(=O)Cn1c(=O)c2c(ncn2Cc2ccccc2)n(Cc2ccccc2)c1=O
56. C=CCOc1ccc(/C=N/NC(=O)CN(c2cc(Cl)ccc2OC)S(=O)(=O)c2ccc(C)c([N+](=O)[O-])c2)cc1
assay / entry,49,50,51,52,53,54,55,56
KCNQ2 pot baseline,2.1,-0.02,0.17,-1.3,0.44,-0.06,-1,-1.4
KCNQ2 pot,0.17,2.3,0.16,0.4,0.03,1.7,0.98,0.09

Whole records as entered above:
CC(C)CC(=O)NC(=S)Nc1nc(-c2ccccc2)cs1 is listed with KCNQ2 pot baseline = 2.1; KCNQ2 pot = 0.78
N/C(Cc1ccc(Cl)cc1Cl)=N\OC(=O)c1ccc(Br)o1 is listed with KCNQ2 pot baseline = 0.73; KCNQ2 pot = 0.2

More structures:
57. O=C(N/N=C/c1cccc([N+](=O)[O-])c1)c1cc2c(ccc3ccccc32)o1
58. CCOc1ccc(S(=O)(=O)N2CCCC(C(=O)N3CCOCC3)C2)cc1Cl (centres undefined)
59. CC(C)CN(C(=O)CN1CCc2ccccc21)c1c(N)n(CC(C)C)c(=O)[nH]c1=O
60. O=C(N/N=C/c1c(F)c(F)c(F)c(F)c1F)c1cccc(S(=O)(=O)N2CCOCC2)c1
61. CSCCC(NC(=O)c1ccccc1)C(=O)N(C)CC(=O)Nc1ccc(N2CCOCC2)cc1 (centres undefined)
62. C=CCSc1n[nH]c(-c2ccc(OCCC)cc2)n1
63. COc1cc(CCC(=O)OCn2nnc3ccccc3c2=O)cc(OC)c1OC
64. Cc1ccc(S(=O)(=O)NC(=O)Nc2cc(C)no2)cc1
assay / entry,57,58,59,60,61,62,63,64
KCNQ2 pot baseline,0.44,-1.1,-0.58,-0.39,-0.11,-2.7,-0.66,-1.1
KCNQ2 pot,1.2,1,0.03,0.72,2.3,1.5,0.21,0.68

65. Cc1cc(C)nc(N2CCC(C(=O)NC3CC3)CC2)n1
66. CCOc1ccccc1OCC(=O)NC1CCCCC1
67. O=C(CCCOc1ccccc1)n1nnc2ccccc21
68. C#CC(CC)(CC)NC(=O)c1c(C)noc1C
assay / entry,65,66,67,68
KCNQ2 pot baseline,-1.7,0.32,-0.16,-0.74
KCNQ2 pot,0.65,2.8,0.1,0.04

Screening results as filed in PubChem.
